Compound activity (PubChem)
2A Renilla: Primary qHTS Assay for Foot and Mouth Disease Virus Antivirals against NCGC Sytravon and CBC Compound Libraries: Renilla Luciferase Signal | HEK cells with a luciferase reporter of 2A StopGo recoding | Potency, µM (series often up to 57.5 µM), for the others: top-dose signal change, negative = less light | 120,000 compounds, 0.32% hits; active means well fitted falling curve with a large enough effect; inconclusive means small, poorly fitted or top-dose-only effect; inactive means no such curve, though single readings can be large or run the other way; also: nearly all actives have a fitted effect of over 55% in size; overnight with compound
2A firefly: Primary qHTS Assay for Foot and Mouth Disease Virus Antivirals against NCGC Sytravon and CBC Compound Libraries: Firefly Luciferase Signal; HEK cells with a luciferase reporter of 2A StopGo recoding; Potency, µM (doses to about 57.5 µM), for inactives: top-dose signal change, negative = less light; 120,000 compounds, 0.23% hits; AID 1745856, 2022; active = well fitted falling curve with a large enough effect; inconclusive = small, poorly fitted or top-dose-only effect; inactive = no such curve, though single readings can be large or run the other way; also: nearly all actives have a fitted effect of over 60% in size; overnight with compound
An asterisk follows results filed as active; u = inconclusive; & = joins results of further samples; [ ] = another dose, or the depositor's remark. % is scaled to controls: 0 for no effect and ±100 for the full control effect; potency is read from the fitted curve at half-maximal effect.

entry	compound	2A Renilla	2A firefly
1	CC(C)NC(=O)c1nn(-c2ccccc2F)nc1CO	0.9%&-18.5%	10.5%&-17.3%
2	CCS(=O)(=O)C(C)(C)S(=O)(=O)CC	-3.1%	-9.6%
3	Cc1nc2cc(F)ccc2cc1C(=O)N1CCN(Cc2ccccc2)CC1	u	u
4	Cc1ccn2c(=O)c(C(=O)NCCc3ccc(S(N)(=O)=O)cc3)c(O)nc2c1	-12.0%	5.2%
5	COc1ccc(C(=O)Nc2nccs2)cc1C12CC3CC(CC(C3)C1)C2	10.9%	13.3%
6	O=C(CCS(=O)(=O)c1cc(Br)cc2c1N(C(=O)C1CC1)CC2)N1CCN(c2cccc(Cl)c2)CC1	-0.7%	-2.5%
7	CC(C)c1ccc(-c2noc(SCC(=O)N3CCN(c4ccc(F)cc4)CC3)n2)cc1	2.8%	25.0%
8	CNC(=S)NNC(=O)c1ccc(Br)s1	23.4%	0.0%
9	CCOc1ccc(NC(=O)C2CCCN(S(=O)(=O)c3cccc4nonc34)C2)cc1 (stereo not given)	-11.1%	-1.2%
10	O=C(CCSc1nnc(NC2CC2)s1)Nc1ccc(Cl)cc1F	-28.0%	-13.7%
11	O=C(c1ccc2c(c1)N(Cc1ccc(Cl)cc1)C(=O)c1ccccc1S2(=O)=O)N1CCCCCC1	59.3%[activator]	u
12	C/C(=N/Nc1ccc(S(N)(=O)=O)cc1[N+](=O)[O-])c1cccc(Cl)c1	-7.4%	-7.5%
13	CSc1nc2c(c(=O)[nH]c(=O)n2C)n1Cc1cccc(C)c1	12.0%	31.7%[activator]
14	CC(C)C(=O)/C(C#N)=C\c1cccc([N+](=O)[O-])c1	6.8%	21.0%
15	COc1ccc(CNC(=O)CSc2nc(-c3ccc(OC)c(OC)c3)cc(C(F)(F)F)n2)cc1	-9.6%	-4.8%
16	CC(C)c1ccc(N2C(=O)CSC23C(=O)N(Cc2ccccc2F)c2ccccc23)cc1 (stereo not given)	-5.6%	-13.9%
17	CN(C)c1ccc(-c2nc(-c3ccccn3)no2)cc1[N+](=O)[O-]	11.6%	u
18	O=C(NCc1ccccc1)c1ccc(-c2cccs2)cc1	57.8%[activator]	0.0%
19	COc1cc(C)cc2oc(=O)c(CC(=O)NC3CCCCCC3)c(C)c12	-3.8%	-12.4%
20	CSc1cccc(NC(=O)C2CCN(S(=O)(=O)c3ccc4c(c3)CCCN4C(=O)C3CCC3)CC2)c1	-5.9%	-18.1%
21	COc1ccc(-c2nc3ccccc3o2)cc1NC(=O)c1cc(Br)ccc1OC	-10.9%	-13.8%
22	Cc1ccc(NC(=O)C2CCCN2S(=O)(=O)c2cccc3nsnc23)cc1F (stereo not given)	u	u
23	CCc1sc(Nc2cccc(Cl)c2)nc1-c1cc2cccc(OC)c2oc1=O	46.5%[activator]	59.1%[activator]
24	CCN(CC)c1nc2ccccc2nc1C(=O)Nc1cccc(C)c1C	-5.1%	-8.3%
25	CCc1[nH]nc2c1C1(C(=O)Nc3ccc(Cl)cc31)C(C#N)=C(N)O2 (stereo not given)	2.2%	16.0%
26	CC(NC(=O)C1CCCC1)c1cccc(C(F)(F)F)c1 (stereo not given)	10.3%	10.0%
27	COc1ccc(-c2nc(S(=O)(=O)c3ccc4c(c3)OCCO4)c(N3CCOCC3)o2)cc1	0.0%	-6.9%
28	CC(C)Cn1c(=O)c2sccc2n2c(CCCC(=O)NCc3ccccc3Cl)nnc12	-5.0%	-8.6%
29	CCOC(=O)CCN(Cc1cc(C)ccc1C)CC1CC1	1.1%	3.5%
30	NC(=O)CSc1ncc2c(n1)-c1ccccc1N(Cc1cccc(F)c1)S2(=O)=O	-13.5%	-14.7%

Some values from the list.
In 2A Renilla, `CC(C)Cn1c(=O)c2sccc2n2c(CCCC(=O)NCc3ccccc3Cl)nnc12` is entered as -5.0%
In 2A firefly, `CSc1cccc(NC(=O)C2CCN(S(=O)(=O)c3ccc4c(c3)CCCN4C(=O)C3CCC3)CC2)c1` is entered as -18.1%

The listing continues:
entry	compound	2A Renilla	2A firefly
31	CCN(CC(=O)Nc1ccc(NC(C)=O)cc1)C(=O)c1nn(C)c(=O)c2ccccc12	6.0%	17.9%
32	CCOC(=O)c1c(C)c(C(=O)NCc2ccc(OC)cc2)c(C)n1CC	-9.1%	-29.7%
33	COC(=O)c1ccccc1NC(=O)Nc1cccc(OCc2cc(=O)n3cccc(C)c3n2)c1	-18.4%	u
34	Cc1ccc(-c2noc(CN3CCCc4c(C(=O)NC(C)C)cccc43)n2)cc1	u	u
35	O=C(Cc1ccc2c(c1)CCCC2)N1CCC(NS(=O)(=O)c2ccccc2)CC1	39.0%[activator]	-5.3%
36	COc1ccc(CNC(=O)CSCc2nc(-c3ccccc3F)oc2C)cc1	-5.1%	17.0%
37	CN(C)CCNc1oc(-c2ccc(F)cc2)nc1S(=O)(=O)c1ccc2c(c1)OCCO2	4.9%	-15.2%
38	COc1ccc(-c2nc3ccc(NS(=O)(=O)c4ccccc4)cc3o2)cc1	145.1%[activator]	36.1%[activator]
39	COc1cc(Nc2nc3ccccc3nc2NS(=O)(=O)c2cc(C)ccc2C)cc(OC)c1	-0.8%	9.2%
40	Cc1ccc2nc3c(cc(C#N)c(=O)n3-c3nnc(SCc4ccc(F)cc4)s3)c(=O)n2c1	-11.0%	12.9%
41	O=C(NC1CCC(c2ccccc2)CC1)c1n[nH]c(=O)c2ccccc12 (stereo not given)	-9.7%	-18.9%
42	CCCCOc1ccc(C(=O)N/C(=C\c2ccc(Br)cc2)C(=O)NC2CCCCC2)cc1	-4.5%	5.2%
43	COc1ccccc1NS(=O)(=O)c1ccc(C(=O)OCC(=O)NCc2ccco2)cc1	-6.7%	1.7%
44	CCOc1cccc(C2c3[nH]c4ccccc4c3CCN2C(=O)Cc2cccc(OCC)c2OCC)c1 (stereo not given)	2.2%	-7.6%
45	O=C(OCc1ncc(-c2ccccc2)o1)c1c(F)cccc1Cl	30.5%[activator]	218.8%[activator]
46	COc1ccccc1C1c2c(-c3ccc(Cl)cc3)n[nH]c2C(=O)N1c1ccc(C)cc1 (stereo not given)	-8.0%	-18.1%
47	CCC(=O)Nc1ccc(Cl)c(-c2nc3ccccc3[nH]2)c1	6.8%	5.2%
48	CCCCCNC(=O)CCCCCn1c(=O)[nH]c2ccsc2c1=O	49.4%[activator]	247.7%[activator]
49	O=C(Nc1ccccc1)c1cc(-c2ccncc2)nc2ccccc12	-5.7%	1.9%
50	Cc1cccc(-c2nc(Cn3c(SCc4cc(C)ccc4C)nc4ccncc43)c(C)o2)c1	-11.8%	-19.3%
51	COc1ccc2c(c1)-c1nc(NC(=O)c3cc(Cl)ccc3OC)sc1CC2	-3.0%	18.5%
52	CC1CCCC(NC(=O)CCCc2cccs2)C1C (stereo not given)	-4.7%[1.06 µM]	0.0%
53	CCC(C)NC(=O)CSc1nnc(C(=O)Nc2ccc(C)cc2)s1 (stereo not given)	2.6%	207.4%[activator]
54	COc1ccc2c(c1)O/C(=C\c1cccc(OS(C)(=O)=O)c1)C2=O	3.7%	53.3%[activator]
55	CCOC(=O)c1ccc(CN(Cc2ccc(C)cc2)S(=O)(=O)c2ccc(F)c(C(=O)Nc3ccc(C)c(F)c3)c2)cc1	-3.4%	-14.6%
56	Cn1c(=O)c2c(nc(NCc3ccc4c(c3)OCO4)n2Cc2ccc(F)cc2)n(C)c1=O	40.5%[activator]	48.9%[activator]
57	CCOC(=O)N1CCC(NC(=O)c2ccc3c(c2)N(Cc2ccccc2)C(=O)c2ccccc2S3=O)CC1 (stereo not given)	-5.5%	1.4%
58	Cc1cc(C)cc(NC(=O)Cn2cc(C(=O)C3CCCCC3)c3ccccc32)c1	51.2%[activator]	-8.3%
59	C=C(C)CNC(=S)N/N=C1\CC2CC=CC12 (stereo not given)	32.7%[activator]	15.6%
60	O=C(Cn1c(=O)c(CNc2ccccc2)cc2cc3c(cc21)OCCO3)Nc1ccccc1Cl	8.1%	37.5%[activator]
61	O=C(NCc1ccco1)C1CCN(c2nccn3nc(-c4ccc(F)cc4)cc23)CC1	-3.6%	-4.7%
62	Cc1cc(C)cc(C(=O)c2c(-c3ccccc3)cc3ccccn23)c1	40.4%[activator]	0.0%
63	CCN(CC)S(=O)(=O)c1cccc(NC(=O)CCNC(=O)c2ccccc2Cl)c1	46.4%[activator]	-4.1%
64	COc1cc(C2C(C#N)=C(N)OC3=C2C(=O)CCC3)ccc1OC(=O)N1CCOCC1 (stereo not given)	-6.3%	-7.8%
65	CC(C)(C)c1nc(C#N)c(NCC(c2ccccc2Cl)N2CCOCC2)o1 (stereo not given)	15.4%	-0.9%
66	O=S(=O)(Nc1nc2ccccc2nc1N1CCN(c2ccccc2)CC1)c1ccccc1	21.3%	75.3%[activator]
67	CC(C)C(=O)Nc1ccc2nc(SCCOc3ccccc3)sc2c1	-13.0%	-11.5%
68	Cc1[nH]c2ccccc2c1C(=O)CSc1ccccc1	10.0%	104.6%[activator]
69	Cc1ccc(-n2c(=O)c3oc4ccccc4c3n(CC(=O)Nc3ccc(F)c(Cl)c3)c2=O)cc1C	1.3%	-8.6%
70	CCC(=O)Nc1sc(C)c(C)c1C#N	8.2%	11.4%
71	COC(=O)c1cc2sc(C)cc2n1Cc1ccccc1	-1.6%&6.0%	26.8%&4.5%
72	Cc1cccc(C)c1N=C1NN=C(c2ccc3c(c2)CCN3S(C)(=O)=O)CS1	-5.5%	-7.3%
73	Cc1ccc(CNC(=O)CCCN2C(=O)c3cccnc3Oc3ccc(Cl)cc32)cc1	5.1%	27.1%
74	COc1cc(NS(=O)(=O)c2c(C(=O)N3CCCCC3)c(C)n(C)c2C)cc(OC)c1OC	9.5%	-16.6%
75	COc1ccc2[nH]c(=O)c(CN(C)S(=O)(=O)c3ccc(C)cc3)cc2c1	-5.0%	-4.8%
76	N#CC(C#N)=Cc1cc(-c2ccccc2)n(-c2ccccc2)c1-c1ccccc1	0.0%	26.1%
77	CC(C)c1nc(N2CCN(C(=O)C(=O)N3CCOCC3)CC2)c(C#N)c2c1CCCC2	7.1%	2.7%
78	Cc1cccc(C)c1NC(=O)CN(C)C(=O)CSc1ccc(F)c(F)c1	-5.3%	-3.6%
79	CCn1c(CCc2cccc(NC(=O)c3ccc(C#N)cc3)c2)nc2ccccc21	11.2µM*	14.1µM*
80	Cc1cc(C)c(C(=O)OCC(=O)N2CCN(S(=O)(=O)c3ccc4ccccc4c3)CC2)c(C)c1	-8.1%	-7.0%
81	N#Cc1ccc(COC(=O)COc2ccc(C3SCCCS3)cc2)cc1	3.0%	20.9%
82	CCOC(=O)C(NC(=O)CC)(Nc1ccccc1F)C(F)(F)F (stereo not given)	-4.8%	-7.0%
83	FC(F)(F)c1cnc(Sc2nnc(C3CC3)n2-c2ccccc2)c(Cl)c1	-2.2%	-10.1%
84	Cc1ccc(CNC(=O)c2cc3c(C)nn(C)c3s2)cc1	-23.2%	-18.1%
85	Cc1ccc(NC(=O)C2CCCN2S(=O)(=O)c2ccc3nc(-c4ccccc4)[nH]c3c2)cc1C (stereo not given)	-10.4%	0.0%
86	CC(C)c1noc(CCC(=O)NC(C)c2ccccn2)n1 (stereo not given)	-6.7%	5.2%
87	C=CCNC(=S)NNC(=O)Cc1ccccc1	-4.2%	6.3%
88	Cc1ccc(NC(=O)c2ccc(C(F)(F)F)cc2)c(F)c1	4.8%	239.8%[activator]
89	Cc1ccc(C(=O)NCc2nc(C)cs2)cn1	12.2%	34.7%[activator]
90	Cc1ccc(-n2nnnc2SCCCn2c(=O)c3c(ncn3C)n(C)c2=O)cc1C	-4.8%	31.2%

Six entries drawn at random from the list so far, as already listed:
entry	compound	2A Renilla	2A firefly
78	Cc1cccc(C)c1NC(=O)CN(C)C(=O)CSc1ccc(F)c(F)c1	-5.3%	-3.6%
17	CN(C)c1ccc(-c2nc(-c3ccccn3)no2)cc1[N+](=O)[O-]	11.6%	u
30	NC(=O)CSc1ncc2c(n1)-c1ccccc1N(Cc1cccc(F)c1)S2(=O)=O	-13.5%	-14.7%
5	COc1ccc(C(=O)Nc2nccs2)cc1C12CC3CC(CC(C3)C1)C2	10.9%	13.3%
40	Cc1ccc2nc3c(cc(C#N)c(=O)n3-c3nnc(SCc4ccc(F)cc4)s3)c(=O)n2c1	-11.0%	12.9%
19	COc1cc(C)cc2oc(=O)c(CC(=O)NC3CCCCCC3)c(C)c12	-3.8%	-12.4%

Other results:
entry	compound	2A Renilla	2A firefly
91	Cn1c(NCc2ccccc2)nc2c1c(=O)n(Cc1ccccc1)c(=O)n2C	-19.1%	-23.8%
92	CCOc1ccc(NC(=O)C(C#N)=C2CCC(C)CC2)cc1 (stereo not given)	21.8%	0.0%
93	O=C(O)c1cc(-c2ccccc2)nc2cc(Br)ccc12	-11.3%	4.2%
94	Cc1ccc2nc(N3CCN(c4ccccc4)CC3)c3nnnn3c2c1	-7.8%	-13.1%
95	O=C(O)Cc1ccc(NS(=O)(=O)c2ccc(C3CCCCC3)cc2)cc1	-11.1%	-4.9%
96	CCN(CC)S(=O)(=O)c1ccc(N2CCCC2)c(NS(=O)(=O)c2ccccc2)c1	31.5%[activator]	-0.2%
97	CCN(C(=O)CN(C)S(=O)(=O)c1cc2c(cc1C)NC(=O)C(C)O2)c1cccc(C)c1 (stereo not given)	49.8%[activator]	-2.5%
98	Cc1oc(-c2cccc(Br)c2)nc1CN1CCC(C(=O)NCc2ccccc2)CC1	-13.1%	-14.0%
99	COc1ccc(-c2nc(CS(=O)CC(=O)N3CCN(C)CC3)c(C)o2)cc1 (stereo not given)	0.8%	33.3%[activator]
100	O=C(CSc1nc2ccccc2o1)Nc1cccc(Cl)c1	-13.7%	0.0%
101	CC(C)(CNC(=O)NCC1CC=CCC1)C(N)=O (stereo not given)	-5.4%	14.1%
